D2 agonist = human D2 receptor agonism in beta-arrestin assay; P14416; DiscoveRx PathHunter D2 beta-arrestin, luminescence, 90 min; 100% = 57 uM dopamine signal; activation, % (no concentration beside the values); actives 0.084% (n = 360,000); AID 624465; in the data active = activation above about 40%; inconclusive = about 15% to 40%; inactive = below about 15%; further: compound concentration not given in the record; the text of the record calls up to 30% inactive
Target sequence (P14416 whole entry, looked up): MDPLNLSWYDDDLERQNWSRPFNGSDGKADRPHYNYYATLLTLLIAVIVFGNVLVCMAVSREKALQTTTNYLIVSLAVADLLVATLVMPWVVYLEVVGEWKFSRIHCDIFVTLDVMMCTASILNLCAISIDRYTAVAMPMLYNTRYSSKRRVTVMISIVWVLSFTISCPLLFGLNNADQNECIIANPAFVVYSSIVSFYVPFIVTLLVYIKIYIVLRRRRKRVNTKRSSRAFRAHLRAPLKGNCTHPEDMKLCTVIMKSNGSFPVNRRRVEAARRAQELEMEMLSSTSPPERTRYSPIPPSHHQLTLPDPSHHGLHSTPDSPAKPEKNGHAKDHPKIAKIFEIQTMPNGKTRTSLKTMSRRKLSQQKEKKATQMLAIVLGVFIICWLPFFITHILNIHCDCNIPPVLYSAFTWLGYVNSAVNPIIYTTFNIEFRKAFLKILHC
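DiscoveRx PathHunter D2 beta-arrestin cells (2,100/well) attached overnight, then compound-stimulated 90 min at 37 C in HBSS/10 mM HEPES/0.1% Tween-20 buffer; beta-galactosidase complementation read by luminescence after 1 h at ambient temperature. Dopamine 57 uM final (EC100) as control.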
CtBP-E1A inh = CtBP/E1A binding inhibition; AlphaScreen GST-E1A/His-CtBP binding, 1536-well; active compounds read low; control for the full effect not named in the record; activity change, % (test concentration not listed); actives 0.49% (n = 340,000); AID 651724; in the data active means activity change below about -65%; inconclusive means about -30% to -65%; inactive means above about -30%; further: on the % scale 0 is the no-effect control and ±100 the full control effect
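AlphaScreen with 125 nM GST-E1A and 125 nM His-CtBP (5X stocks) in Tris pH 8.0, 300 mM NaCl, BSA, Tween 20, TCEP. Compounds preincubated 2 h at 37 deg C, then glutathione donor/nickel acceptor beads added for 1 h at 37 deg C in dark.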
TRPML1 blocker = human mucolipin-1 channel inhibition. TRPML1-inducible cells, Ca2+ dye fluorescence, FDSS; active compounds read low; inhibition of EC80 agonist-evoked calcium signal. activity change, negative = inhibition, % (concentration not given with the values). actives 0.02% (n = 390,000). AID 624415; in the data active means activity change below about -50%; inconclusive means about -30% to -50%; inactive means above about -30%;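 further: stimulus is agonist 54-4 at its EC80 concentration; on the % scale 0 is the no-effect control and ±100 the full control effect; the text of the record puts the active cut at -80%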
Target sequence (Q9GZU1 whole entry, looked up): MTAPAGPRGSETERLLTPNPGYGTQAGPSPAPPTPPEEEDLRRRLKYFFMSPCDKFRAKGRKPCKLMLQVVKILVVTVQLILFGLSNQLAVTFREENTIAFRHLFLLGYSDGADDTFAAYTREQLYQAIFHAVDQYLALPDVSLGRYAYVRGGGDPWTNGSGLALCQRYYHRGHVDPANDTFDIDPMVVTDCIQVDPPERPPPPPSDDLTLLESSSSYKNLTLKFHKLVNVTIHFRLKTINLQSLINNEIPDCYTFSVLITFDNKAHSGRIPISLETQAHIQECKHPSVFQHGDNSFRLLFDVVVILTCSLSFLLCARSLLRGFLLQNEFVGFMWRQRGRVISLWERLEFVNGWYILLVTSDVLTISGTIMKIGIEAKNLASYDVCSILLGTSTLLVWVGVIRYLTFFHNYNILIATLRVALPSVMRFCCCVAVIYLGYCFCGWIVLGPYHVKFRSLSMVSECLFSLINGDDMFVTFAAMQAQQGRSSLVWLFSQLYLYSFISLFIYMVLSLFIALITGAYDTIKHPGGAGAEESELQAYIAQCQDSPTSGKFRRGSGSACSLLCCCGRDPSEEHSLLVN
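Calcium fluorescence in TRPML1-DL cells induced overnight with Tet: a 110 s read after compound pin addition, then a 110 s antagonist read after challenge with 54-4 at 4 uM final (EC80).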
TRPML1 ag = agonists of human TRPML1 channel. actives 0.12% (n = 410,000). TRPML1-expressing cells, Ca2+ dye fluorescence, FDSS; host cell line not named in the record; reference of the full effect not given here. Q9GZU1. activation, % (no concentration beside the values); in the data active = activation above about 50%; inconclusive = about 30% to 50%; inactive = below about 30%; further: 0% is about no effect; the text of the record puts the active cut at 80%
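Calcium fluorescence on an FDSS kinetic reader gave the read-out. Tet-induced TRPML1-DL cells were plated overnight, dye-loaded (Ca8 with quencher, 45-90 min, room temperature, dark), then read 110 s after compound addition, and again 110 s after 4uM final 54-4 (EC80).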
Six1-Eya2 inh = inhibitors of human Six1/Eya2 interaction; activity change, % (test concentration not listed); AID 651725; AlphaScreen GST-Six1/His-Eya2 binding, biochemical; active compounds read low; control for the full effect not named in the record; actives 0.56% (n = 360,000); in the data active = activity change below about -65%; inconclusive = about -30% to -65%; inactive = above about -30%; further: on the % scale 0 is the no-effect control and ±100 the full control effect
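Six1/Eya2 binding was read as AlphaScreen signal after compounds were pinned into GST-Six1 plus His-tagged Eya2 (5X stock 250/500 nM) in pH 8.0 Tris/NaCl/TCEP buffer, beads added, then incubated 1 h, 37 C, dark.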
PINK1 modulator = modulators of PINK1 expression; PINK1 immunofluorescence, high-content cytometry, 24 h; Potency, µM (top dose mostly 76.6 µM), without a hit: top-dose activation (PINK1 increase), actives largely listed as activators; actives 0.2% (n = 410,000); AID 624263; active = well fitted activation curve with a large enough effect; inconclusive = small, poorly fitted or top-dose-only effect; inactive = flat fitted curve, though single readings scatter; cell line not stated here;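 further: potency means the concentration at half of the fitted maximal effect; % of control where 0% means no effect; nearly all actives have a fitted effect of over 65% in size; a mitochondrial uncoupler was the plate control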
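Compound titrations (5 concentrations, 24 h) on a stable cell line; DMSO and CCCP controls. Endpoint: fixed-cell PINK1 immunofluorescence with mitochondrial, cell and nuclear markers, scanned by microplate cytometer.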
* hit, by the source's call; ? = inconclusive; . = not tested or not shown; & = joins results of further samples; [ ] = remark or other dose. Compounds as they come; about 1% have a hit in one of these screens.

SMILES | D2 agonist | CtBP-E1A inh | TRPML1 blocker | TRPML1 ag | Six1-Eya2 inh | PINK1 modulator
CN(C)S(=O)(=O)c1ccc(C(=O)NCc2nnc(SCC(=O)c3ccccc3)o2)cc1 | 2.2 | -2 | 2 | 0.1 | 2 | 1.6%
COc1cc(-c2nc3n(n2)C(c2ccncc2)C2=C(CCCC2=O)N3)cc(OC)c1OC (configuration not stated) | -0.8 | -17 | 22 | -0.3 | ? | 2.7%
COC(=O)c1ccccc1S(=O)(=O)N1CCC(C(=O)Nc2ccccc2N2CCOCC2)CC1 | 0.4 | 2 | -5 | -0.2 | 5 | 1.5%
Cc1ccc(S(=O)(=O)Nc2ccc(-c3nnc(SCc4ccccc4Cl)o3)cc2)cc1 | 2.5 | -6 | -11 | 0.6 | 0 | 4.2%
O=C(NCCCOc1ccc([N+](=O)[O-])cc1Cl)OCc1ccccc1 | -3.1 | 5 | 27 | 1.8 | -14 | 2.9%
CCNC1(C(N)=O)CCN(Cc2ccccc2)CC1 | 1.7 | 1 | 6 | 0.7 | 5 | 3.5%
O=C(CCN1CCC(c2ccccc2)C1)c1cccs1 (configuration not stated) | -0.6 | -1 | 13 | 0.3 | -2 | -0.3%[38.3 µM]
COc1ccc(/C=C/C(=O)Nc2sc(C)c(C)c2C(=O)O)cc1 | . | . | 6 | -1.3 | . | 1.7%
Cc1ccccc1NC(=O)COC(=O)/C=C/c1cccc(C(F)(F)F)c1 | -1.0 | 2 | 1 | 0.6 | 6 | -1.2%
CC1(C(=O)NC2CCCCCCC2)CC1(Cl)Cl (configuration not stated) | 0.0 | -1 | 5 | -0.3 | 1 | 2.3%[38.3 µM]
CCOC(=O)c1[nH]cnc1C(=O)N1CCN(C(=O)OC(C)(C)C)CC1 | -2.6 | -8 | -15 | 0.1 | 8 | 0.2%
Cn1cnc([N+](=O)[O-])c1Sc1nnc(-c2cccnc2)n1C | -3.1 | . | -6 | 0.5 | -12 | 0.9%
COc1ccc(/C=C(\NC(=O)c2ccccc2)C(=O)NCC2CCCO2)cc1 (configuration not stated) | -0.3 | 0 | 5 | -0.6 | 0 | 1.2%
Cc1c(NC(=O)Nc2ccc(F)c(Cl)c2)c(=O)n(-c2ccccc2)n1C | . | . | 65 | -0.8 | . | 1.5%
Cc1ccc(SCCC(=O)Nc2ccc(OCc3ccccc3)cc2)cc1 | -3.0 | -12 | 10 | 2.7 | 6 | ?
CCN(CC)CCCNC(=O)c1cn(C)c2ccc(S(=O)(=O)N(C)C3CCCCC3)cc2c1=O | 1.0 | -21 | -3&-2 | 0.2&-0.8 | 7 | -2.1%&3.6%
O=C(NCC(=O)N(c1ccccc1)C(C(=O)NC1CCCC1)c1ccncc1)c1ccco1 (configuration not stated) | -3.4 | 6 | -13 | 0.4 | 6 | -1.3%
O=C(OCC(O)CO)c1ccccc1Nc1ccnc2cc(Cl)ccc12 (configuration not stated) | -2.1 | -2 | -1 | 1.0 | -5 | 0.2%
COC(=O)c1cc(OC)c(OC)cc1N1C(=O)CCCC1=O | -7.3 | . | 1 | 0.0 | -2 | 1.1%
Cc1ccc(-c2cn(S(=O)(=O)c3cccc4nsnc34)nc2N)cc1 | -5.0 | -19 | -8 | 3.6 | -28 | -1.6%
CC(/C=N/Nc1nc(C)cc(C)n1)=C\c1ccc(C(C)C)cc1 | 0.2 | -8 | -6 | -0.2 | -1 | -1.3%
COc1cc2cc(C(=O)N/N=C/c3ccccc3Cl)[nH]c2cc1OC | 1.6 | -3 | . | . | 2 | 7.9%
COc1cc(Cl)c(NC2=CC(=O)C(=O)c3ccccc32)c(OC)c1 | ? | -3 | -7 | 5.7 | -9 | -1.0%
CCc1ccc(-c2nc(SCC(=O)c3c(N)n(C)c(=O)n(C)c3=O)n[nH]2)cc1 | -2.4 | -2 | 9 | 0.6 | 8 | 3.3%

Ordered by formula weight (lowest first): 3 of the compounds above
SMILES | D2 agonist | CtBP-E1A inh | TRPML1 blocker | TRPML1 ag | Six1-Eya2 inh | PINK1 modulator
Cc1ccccc1NC(=O)COC(=O)/C=C/c1cccc(C(F)(F)F)c1 | -1.0 | 2 | 1 | 0.6 | 6 | -1.2%
Cc1ccc(-c2cn(S(=O)(=O)c3cccc4nsnc34)nc2N)cc1 | -5.0 | -19 | -8 | 3.6 | -28 | -1.6%
COC(=O)c1ccccc1S(=O)(=O)N1CCC(C(=O)Nc2ccccc2N2CCOCC2)CC1 | 0.4 | 2 | -5 | -0.2 | 5 | 1.5%

Next section
SMILES | D2 agonist | CtBP-E1A inh | TRPML1 blocker | TRPML1 ag | Six1-Eya2 inh | PINK1 modulator
CCCCCCCCCCCCOC(=O)N1CCN(/[N+]([O-])=N/Oc2ccc([N+](=O)[O-])cc2[N+](C)=O)CC1 | . | . | -8 | 1.0 | . | -1.2%
COC(=O)Cc1ccc(NC(=S)N2CCCCC2C)cc1 (configuration not stated) | 0.9 | 0 | -3 | -0.4 | 6 | -1.7%
COC(=O)c1ccc(NC(=O)Cc2ccc(C)cc2)cc1 | -4.4 | 2 | 18 | 0.0 | -2 | -0.3%
Cc1ccc2onc(CNC(=O)N(C)Cc3ccccc3)c2c1 | . | . | -23 | 0.8 | . | 1.0%
COCCNC(=O)C1(C)CCN(C(=O)c2ccc(SC(F)(F)F)cc2)C1 (configuration not stated) | 3.9 | -10 | . | -0.4 | 8 | 1.6%
COc1ccccc1CNC(=O)C12CC3CC(CC(C3)C1)C2 | 4.0 | 10 | -3 | 0.5 | 5 | 3.8%
CCCOc1ccc(C2c3c(oc4cc(C)c(C)cc4c3=O)C(=O)N2CCCN(C)C)cc1OCC (configuration not stated) | -3.1 | -1 | 8 | 0.2 | 2 | 1.1%
NS(=O)(=O)c1ccc(CCNC(=O)CCNC(=O)c2ccco2)cc1 | -1.4 | 6 | 30 | -0.5 | 2 | 0.3%
O=C(Nc1cccc(Oc2ccccc2)c1)c1ccc(-n2cncn2)c2ccoc12 | 5.7 | -6 | . | 0.2 | -16 | 3.5%
CNC(=O)C[C@@H]1C(=O)N(Cc2ccccc2)CC1(C)C | -0.6 | 3 | 10 | -0.1 | 2 | -0.1%
O=C(N[C@@H](Cc1ccccc1)C(=O)OCc1ccccc1)c1nc[nH]c1C(=O)N1CCNCC1 | -1.5 | -4 | 4 | -0.4 | -1 | -1.3%
N#C/C(=C\Nc1ccccn1)S(=O)(=O)c1ccc(Cl)cc1 | 2.0 | -10 | 25 | 1.3 | 13 | 0.5%
CNc1nc(SC)nc(N2CCOCC2)n1 | -3.3 | 1 | -1 | -0.4 | 4 | -0.8%
O=C(NCC1COc2ccccc2O1)c1ccc(NC(=O)C(c2ccccc2)c2ccccc2)cc1 (configuration not stated) | -11 | . | -9 | 1.5 | -1 | 5.4%
COc1ccc(C(=O)NC(C)c2nnc(SCC(=O)Nc3nc4ccccc4s3)n2C)cc1 (configuration not stated) | -1.5 | -4 | 38 | 0.7 | -12 | -1.2%
O=C(Nc1ccc(F)cc1)c1cnccn1 | -0.6 | 5 | -7 | 0.1 | 3 | 2.0%
COc1cccc(CNC(=O)COc2cccc3c2OC(C)(C)C3)c1 | 0.7 | 0 | -4 | 3.9 | 12 | 2.0%
COc1ccc(Cl)cc1NC(=O)c1c(NCc2ccc(C)o2)sc2c1CCCCC2 | . | . | 3 | -0.6 | . | 0.0%
Cc1ccc(C(=O)OCC(=O)N(CC(C)C)c2c(N)n(Cc3ccccc3)c(=O)[nH]c2=O)s1 | -0.9 | 1 | 25 | 1.0 | 1 | -0.6%
COC(C(=O)Nc1ccnn1C1CCN(Cc2ccc(C)s2)CC1)c1ccccc1 (configuration not stated) | -3.8 | 2 | 6 | -0.2 | -3 | 1.2%
Cc1cc(NS(=O)(=O)c2ccc(NC(=S)NC(=O)c3ccc(F)cc3)cc2)no1 | -8.3 | 2 | 8 | 0.5 | -14 | -1.4%
COc1ccc(C(=O)NCCOC(C)C)cc1OC1CCN(C(C)=O)CC1 | -0.1 | . | . | . | -3 | 3.0%
CC(=O)c1ccccc1NC(=O)CSc1nnc(Cc2csc(C)n2)o1 | 1.6 | -3 | -4 | 0.0 | 10 | 3.2%
CCCC(=O)c1ccc(-c2ccccc2)cc1 | -1.1 | 55 | 4 | 0.6 | 23 | 9.7%

In a second layout: entries from further up.
molecule	D2 agonist	CtBP-E1A inh	TRPML1 blocker	TRPML1 ag	Six1-Eya2 inh	PINK1 modulator
COC(C(=O)Nc1ccnn1C1CCN(Cc2ccc(C)s2)CC1)c1ccccc1 (configuration not stated)	-3.8	2	6	-0.2	-3	1.2%
Cc1cc(NS(=O)(=O)c2ccc(NC(=S)NC(=O)c3ccc(F)cc3)cc2)no1	-8.3	2	8	0.5	-14	-1.4%
COc1ccc(C(=O)NCCOC(C)C)cc1OC1CCN(C(C)=O)CC1	-0.1	.	.	.	-3	3.0%

Other compounds follow:
SMILES | D2 agonist | CtBP-E1A inh | TRPML1 blocker | TRPML1 ag | Six1-Eya2 inh | PINK1 modulator
CCC(=O)N1CCc2cc(S(=O)(=O)NC(CC(C)C)C(=O)NCCc3ccccc3)ccc21 (configuration not stated) | . | . | -14 | 2.3 | . | 0.3%
CCOc1ccc(C(=O)c2cc([N+](=O)[O-])ccc2N2CCOCC2)cc1 | -1.8 | 16 | -19 | -0.4 | -17 | 8.4%
COc1ccc(CCNC(=O)C(Sc2ccccn2)c2ccccc2)cc1OC (configuration not stated) | -0.7 | 0 | 1 | -0.4 | -4 | 1.5%
CCOc1ccc(OCC(=O)NCCc2nc3ccccc3[nH]2)cc1 | -3.0 | -2 | 11 | 0.5 | 5 | -0.9%
O=C(NCc1ccco1)/C(=C\c1cccs1)NC(=O)c1ccsc1 | -1.8 | 10 | -20 | 1.8 | 2 | -0.4%
Cc1cccc(C)c1NC(=O)c1cc2sccc2n1Cc1ccc(F)cc1 | . | . | -12 | -0.1 | . | ?
CC1CCN(C(=O)CSc2nc(-c3ccc(C(C)C)cc3)no2)CC1 | . | . | -7 | 2.0 | . | 26%
CC(=O)Nc1ccc(/C=N/N2C(C)CCCC2C)cc1 (configuration not stated) | 0.9 | 2 | 5 | -0.6 | 1 | 1.5%
CC1CN(C(=O)C2(C)CC2(Br)Br)CC(C)O1 (configuration not stated) | -4.6 | 17 | 3 | -0.2 | 12 | 5.6%
COc1ccccc1Nc1nc(N)nc(CN2CCCCCC2)n1 | -0.4 | -26 | 11 | -1.0 | -25 | 0.7%
O=C(/C=C/NNC(=O)c1ccccc1)c1ccc(Br)cc1 | -14 | 0 | -14 | 0.1 | -13 | 0.1%
CCCCCC(=O)N1C[C@H](n2cc(C3CC3)nn2)[C@@H](O)C[C@@H]1c1ccc(C)cc1 | -9.7 | 6 | 11 | -0.3 | 4 | -0.7%
NS(=O)(=O)c1ccc(CCNC(=O)c2ccc(Cl)c(S(=O)(=O)N3CCCCC3)c2)cc1 | 0.0 | -3 | 4 | 1.8 | -9 | 1.7%
O=C(O)C1CC=CCC1C(=O)Nc1ccc2c(c1)OCCO2 (configuration not stated) | -4.5 | 6 | -13 | -0.4 | 0 | 1.9%
CC(=O)OCCn1c(C)[n+](CCOC(C)=O)c2cc(Cl)c(Cl)cc21 | 3.9 | 6 | -7 | -0.6 | 0 | 4.5%
